NPYLR7 ag: agonists of mosquito NPYLR7 receptor, primary screen, cell-based, Aedes aegypti, calcium fluorescence, mosquito biting behavior; Aedes aegypti neuropeptide Y-like receptor 7 (NPYLR7); HEK293T NPYLR7/Galpha15, GCaMP6s calcium fluorescence; activation, % at 10 µM; 0.15% of 270,000 active; in the data active = activation above about 40%;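 note: 0% = vehicle and 100% = reference agonist at the receptor; some compounds past the cut are filed as inactive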
NPYLR7 ag max-min: recorded beside NPYLR7 ag, whose call it bears; activation, %; measured here: Max-Min RFU normalised activation; some inactives read as strong as hits;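 span of the calcium signal over five minutes; 0% = vehicle and 100% = native peptide agonist; compound fluorescence can raise it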
Active calls of the source: *. An excerpt, so the mix of outcomes need not match the whole.

SMILES	NPYLR7 ag	NPYLR7 ag max-min
O=C(Cc1ccc(F)cc1)OCc1cc(-c2ccccc2)on1	3	3
COC(=O)c1ccc(CNC(=O)C(C)OC(=O)c2cc(Cl)c[nH]2)cc1 (stereo not given)	0	-3
Cc1cc(C)c(NC(=O)CCc2ncc(-c3ccc(F)cc3F)o2)c(C)c1	10	11
CC(Sc1nnnn1C(C)(C)C)C(=O)NC(N)=O (stereo not given)	5	9
COc1cc(-c2ccccc2C(F)(F)F)nc(N)n1	-4	-5
Cc1ccc(Cl)cc1-c1n[nH]c(C2CC2)n1	7	0
Cc1nc(C)c(C(C)NC(=O)C2CCCN2C(=O)NC2CCCCC2)s1 (stereo not given)	2	10
Cc1nn(C(C)C)c(C)c1S(=O)(=O)Nc1cccc(F)c1	8	2
CCc1noc(C)c1C(=O)N1CCCC(Nc2ccc3c(c2)OCCO3)C1 (stereo not given)	18	16
CCN(C(=O)C(C)OC)C(c1ccc(Cl)cc1)c1ccccn1 (stereo not given)	14	40
O=C1C(SC2CCCc3ccccc32)CCN1C1CCOCC1 (stereo not given)	5	6
CC(=O)Nc1ccc(C(=O)NC(C)c2ccc(Cl)cc2)s1 (stereo not given)	4	3
Cc1nn2c(ncc3c(=O)n(CCN4CCOCC4)ccc32)c1-c1ccccc1	0	4
CCc1oc(C(N)=O)cc1CN1CCC=C(CN(C)C(C)=O)C1	27	19
COC(=O)c1ccoc1COC(=O)C1(c2ccc(Cl)cc2)CCC1	-1	0
COCCNC(=O)C1CCCN(C2CCN(C(=O)c3cnn(C)c3)CC2)C1 (stereo not given)	-11	-13
CCCCC1=NN2C(=N)/C(=C/c3ccc(N(C)C)cc3)C(=O)N=C2S1	2	1
Cc1ccsc1C(=O)N1CCC1(C)C(=O)NC(C)C (stereo not given)	24	19
Cc1ccc(C(NC(=O)C2CCN(Cc3ccc(Cl)c(Cl)c3)CC2)c2ccccn2)cc1 (stereo not given)	5	10
CNC(=O)C1CCN(Cc2nc(-c3ccc(F)cc3)no2)CC1	-1	-1
CSc1nc(N2CCOCC2)c2cnn(CCNC(=O)c3cc4ccccc4o3)c2n1	-3	-4
CN1N=C(C(=O)N2CCN(S(=O)(=O)c3ccccc3)CC2)CCC1=O	-1	4
Cc1nc(SCc2ccccc2)[nH]c(=O)c1CC(=O)NC(C)CCc1ccccc1 (stereo not given)	-8	-15
COc1ccc(NC(=O)CCn2c(=O)oc3ccccc32)cc1S(=O)(=O)N1CCCCC1	4	18
CSc1ccccc1OCc1cc(C(=O)NCCn2ccnc2C)no1	4	-1

Further entries.
SMILES	NPYLR7 ag	NPYLR7 ag max-min
Nc1nc(-c2ccc(Br)s2)cs1	-6	-9
Cc1ccccc1-n1c(-c2ccc(Cl)cc2)cc(C(=O)NCCCN2CCOCC2)c1C	-8	-12
O=C(NCCn1ccc2ccccc21)NC1CC(=O)N(c2ccccc2)C1 (stereo not given)	0	0
c1ccc(CCc2n[nH]c(Cc3ccc(-n4cnnn4)cc3)n2)cc1	2	-3
CCCC(C#N)NC(=O)c1sc(-c2c(C)c(C)nn(C)c2=O)nc1C (stereo not given)	-1	-5
COc1cccc(N(C(C)=O)C2C=CS(=O)(=O)C2)c1 (stereo not given)	1	-6
O=C(NC1CC1)C1CCN(c2nnc(-n3cccc3)s2)CC1	-5	-4
CC1(C)O[C@@H]2C[C@@](OCc3ccccc3F)(C(=O)NCCCn3ccnc3)CC(OCc3cccc(Cl)c3)[C@@H]2O1 (stereo not given in full)	26	30
CCn1c(C2CCCN(C(=O)c3cc(CC(C)C)no3)C2)n[nH]c1=O (stereo not given)	16	12
Cc1ccc(C(C)C)c(OCCSc2nc3ccccc3[nH]2)c1	-6	-18
COc1ccc(OC)c(C(C)NC(=O)c2ccc3n[nH]nc3c2)c1 (stereo not given)	6	0
O=C(Nc1ccc(Br)cc1)C1CCCN1C(=O)C1COc2ccccc2O1 (stereo not given)	-4	-5
COc1ccc(OCc2n[nH]c(=S)n2Cc2ccco2)cc1	8	7
CC(CCNC(=O)c1cn[nH]n1)c1cccc(C(F)(F)F)c1 (stereo not given)	8	6
CC1(C)OC(c2ccccc2)=C/C(=C\C=C(C#N)C#N)O1	-2	-2
COc1ccc(/C=C2/C(=O)NC(=O)N(Cc3ccccc3)C2=O)cc1Br	7	8
CN(Cc1cc(-c2ccncc2)no1)Cc1ccc(Cl)s1	0	-2
CCCNC(=O)c1cnn(-c2ccc(C)cc2)c1C	3	3
COCCN(CCOC)c1nc(-c2cccc(Cl)c2Cl)nc2ccccc12	0	5
COc1ccc(-c2cc(C(=O)N3CCC4(CC3)OCCO4)c(C)n2-c2ccccc2Cl)cc1	-8	-11
COc1cccc(CN(C)C(=O)c2sc(=O)n(Cc3cccc(F)c3)c2C)c1	10	5
Cc1c(CCNC(=O)c2ccc(Br)o2)sc2nc(-c3ccc(Cl)cc3)nn12	3	1
N#CC(=NNc1ccc2c(c1)OCO2)c1nc2ccccc2s1	5	2
c1ccc(Cc2cn[nH]c2C2CCN(c3cnccn3)CC2)cc1	8	5
CN1CCNC(=O)C12CCN(c1nc3c(cc1C(N)=O)CCC3)CC2	3	0

Next part.
SMILES	NPYLR7 ag	NPYLR7 ag max-min
N#Cc1ccc(CN2CCN(C(=O)CNC(=O)c3ccco3)CC2)cc1	10	6
CCN(CC)CCNc1cc(C(C)C)c(C#N)c2nc3ccccc3n12	2	1
CCOC(=O)c1nn(CCc2ccccc2)c2c1CN(C(=O)c1ccc3cc[nH]c3c1)CC2	7	-4
CCn1c(C)c(C(=O)CN(C(=O)C(C)Cl)C2CCCCC2)c(C)c1C(=O)OC (stereo not given)	-6	-4
O=C(c1c(F)cccc1Cl)N1CCN(CCCOC(c2ccc(Cl)cc2)c2ccc(Cl)cc2)CC1	4	-1
Cc1cccc(CSc2nnc(C(C)NC(=O)COCc3ccccc3)n2-c2ccc([N+](=O)[O-])cc2)c1 (stereo not given)	20	25
CCC(C)C(NS(C)(=O)=O)C(=O)NCc1ccc(F)cc1 (stereo not given)	2	2
O=c1nc(SCc2cccc(Cl)c2)c2c(n1CC1CCCO1)CCCC2 (stereo not given)	0	-2
Cc1cc(C)c[n+](C2=C(c3c(C)[nH]n(-c4ccc(Cl)cc4)c3=O)C(=O)N(Cc3ccccc3)C2=O)c1	1	7
CC(=O)C1=C(C(F)(F)F)C(=O)OC1(C)N1CCOCC1 (stereo not given)	3	-1
CC1=CC(=NN=c2sc3ccccc3n2C)CC(C)(C)C1	1	1
Cc1ccc(Cn2c(C3CC(=O)N(Cc4ccccc4)C3)nc3ccccc32)cc1 (stereo not given)	0	-1
CS(=O)(=O)c1ccc(S(=O)(=O)N2CCN(Cc3cc(=O)c(OCc4ccc(F)cc4)co3)CC2)cc1	-1	-3
Cc1cc(Cl)ccc1N1C(=O)/C(=C\c2cccc(O)c2O)N(C)C1=S	24	26
N#CC1C(=N)Oc2cc(O)ccc2C1c1ccncc1 (stereo not given)	85*	74*
CCOC(=O)c1cccnc1Oc1ccc(F)cc1	5	3
COc1ccc(F)cc1C(=O)NCC(C)c1ccncc1 (stereo not given)	10	3
Cc1ncc(C(=O)NC(C)(C)c2ccccc2)s1	3	3
CNC(=O)C1Cc2ccccc2CN1Cc1nc(-c2cccc(Cl)c2)no1 (stereo not given)	-2	-4
CSc1nnc2c(n1)OC(c1ccccc1Cl)Nc1ccccc1-2 (stereo not given)	-4	-6
O=[N+]([O-])c1cc(Cl)cc2c1OC(=CCOc1ccc(F)cc1)C2N1CCOCC1 (stereo not given)	18	12
COC(=O)C(CC(C)C)NC(=O)c1nc(N2CCOCC2)ncc1Cl (stereo not given)	5	1
Cc1cc(F)ccc1NC(=O)CCC1CCCN(Cc2cc(Cl)ccc2O)C1 (stereo not given)	0	-2
O=C(Nc1ccc(Cl)cc1)N(Cc1cccc(OS(=O)(=O)c2cccc(C(F)(F)F)c2)c1)Cc1ccco1	-1	6
Cc1nn(-c2ccc(F)cc2)c(C)c1C(=O)NCc1n[nH]c2c1CCC2	-5	-5

21 compounds from above, arranged by SMILES length, descending:
SMILES	NPYLR7 ag	NPYLR7 ag max-min
Cc1cc(C)c[n+](C2=C(c3c(C)[nH]n(-c4ccc(Cl)cc4)c3=O)C(=O)N(Cc3ccccc3)C2=O)c1	1	7
O=C(Nc1ccc(Cl)cc1)N(Cc1cccc(OS(=O)(=O)c2cccc(C(F)(F)F)c2)c1)Cc1ccco1	-1	6
CS(=O)(=O)c1ccc(S(=O)(=O)N2CCN(Cc3cc(=O)c(OCc4ccc(F)cc4)co3)CC2)cc1	-1	-3
Cc1cccc(CSc2nnc(C(C)NC(=O)COCc3ccccc3)n2-c2ccc([N+](=O)[O-])cc2)c1 (stereo not given)	20	25
O=C(c1c(F)cccc1Cl)N1CCN(CCCOC(c2ccc(Cl)cc2)c2ccc(Cl)cc2)CC1	4	-1
CCOC(=O)c1nn(CCc2ccccc2)c2c1CN(C(=O)c1ccc3cc[nH]c3c1)CC2	7	-4
O=[N+]([O-])c1cc(Cl)cc2c1OC(=CCOc1ccc(F)cc1)C2N1CCOCC1 (stereo not given)	18	12
CCn1c(C)c(C(=O)CN(C(=O)C(C)Cl)C2CCCCC2)c(C)c1C(=O)OC (stereo not given)	-6	-4
Cc1c(CCNC(=O)c2ccc(Br)o2)sc2nc(-c3ccc(Cl)cc3)nn12	3	1
Cc1cc(Cl)ccc1N1C(=O)/C(=C\c2cccc(O)c2O)N(C)C1=S	24	26
CNC(=O)C1Cc2ccccc2CN1Cc1nc(-c2cccc(Cl)c2)no1 (stereo not given)	-2	-4
CN1CCNC(=O)C12CCN(c1nc3c(cc1C(N)=O)CCC3)CC2	3	0
COC(=O)C(CC(C)C)NC(=O)c1nc(N2CCOCC2)ncc1Cl (stereo not given)	5	1
CCN(CC)CCNc1cc(C(C)C)c(C#N)c2nc3ccccc3n12	2	1
CC(=O)C1=C(C(F)(F)F)C(=O)OC1(C)N1CCOCC1 (stereo not given)	3	-1
CSc1nnc2c(n1)OC(c1ccccc1Cl)Nc1ccccc1-2 (stereo not given)	-4	-6
N#CC(=NNc1ccc2c(c1)OCO2)c1nc2ccccc2s1	5	2
CC1=CC(=NN=c2sc3ccccc3n2C)CC(C)(C)C1	1	1
COc1ccc(F)cc1C(=O)NCC(C)c1ccncc1 (stereo not given)	10	3
Cc1ncc(C(=O)NC(C)(C)c2ccccc2)s1	3	3
CCOC(=O)c1cccnc1Oc1ccc(F)cc1	5	3

(further entries)
SMILES	NPYLR7 ag	NPYLR7 ag max-min
CC(C)C(NC(=O)c1ccc(F)cc1)C(=O)N1CCN(C(C)C(=O)N2CCCCC2)CC1 (stereo not given)	-2	-4
COc1ccccc1NC(=O)N(Cc1ccccc1Cl)CC1CC(c2ccc(Cl)c(Cl)c2)=NO1 (stereo not given)	-3	6
O=C(c1c2c(nc3ccccc13)CCN(CCc1ccccc1)C2)N1CCCC1c1ccccn1 (stereo not given)	1	1
CCOC(=O)C(C)Sc1ccc2nnc(-c3ccncc3)n2n1 (stereo not given)	-2	-2
CCN(CC)C(=O)c1cccc(NC(=O)CN(c2cnn(C)c2)C(C)C)c1	13	13
Cc1cccc2nc(-c3cccc(F)c3)c(NCc3ccccc3)n12	50	36
COc1ccc(S(=O)(=O)Nc2ccc(N3CCSCC3)cc2C)cc1	17	17
O=C(Cn1nc2c(-c3nc(-c4cccc(Cl)c4)no3)cccn2c1=O)NC1CCCC1	1	0
CCOc1cc(C=C2N=C(c3ccc(OC)c(OC)c3)OC2=O)cc(Br)c1OC	7	6
COCC(=O)Nc1c(C)nc2cnc(-c3ccc4ccccc4c3)cn12	-1	-6
COc1ccc(-c2nc3cc(C)ccn3c2NC(=O)C2CCCC2)cc1	-6	-6
C=CCN(Cc1cnc(C)n1C)C1(C)CCS(=O)(=O)C1 (stereo not given)	19	16
CC1(C(=O)NS(=O)(=O)c2cccs2)CCN1C(=O)CCc1ccc(Cl)cc1Cl (stereo not given)	-1	-5
CC(C)CNC(=O)C1CCN(CC(=O)Nc2ccc(Br)cc2Cl)CC1	-2	-4
Cc1ccc(C)c(OCc2cc(C(=O)N3CCCC4(CCCN(C)C4)C3)no2)c1 (stereo not given)	1	-1
Cc1ccccc1-n1cc(CN(C)S(=O)(=O)NCc2ccccc2)cn1	-2	-2
Cc1ccc2c(c1)CN(C(=O)CSc1ccccn1)CC(c1ccsc1)O2 (stereo not given)	-2	-4
CS(=O)(=O)Nc1ccc(S(=O)(=O)N2CCCCC2)cc1	6	6
CCN1CCN(C2(C(=O)N(C)Cc3ccc(C)o3)Cc3ccccc3C2)CC1	15	10
CC1(C)CN(C(=O)NCc2ccc(-n3ccnc3)nc2)CCS1	-27	-24
OC(c1ccccc1)c1cn[nH]c1 (stereo not given)	-4	-4
COCCN(CC(=O)Nc1nc(CC(=O)N2CCC(Cc3ccccc3)CC2)cs1)C(=O)c1ccc(OC)cc1	-9	-7
O=C1COc2cc(C(=O)NC(c3ccccc3)c3cccs3)ccc2N1 (stereo not given)	13	4
CC1=NN(c2cccc(Cl)c2)C(=O)/C1=C\c1ccc(OCc2ccccc2)cc1	-9	-2
CSc1ccccc1C(=O)N1CCN(c2ncnc3c2nnn3Cc2ccccc2)CC1	-2	-3

An excerpt of these results, in markdown:
| Structure | NPYLR7 ag | NPYLR7 ag max-min |
| --- | --- | --- |
| CCOc1cc(C=C2N=C(c3ccc(OC)c(OC)c3)OC2=O)cc(Br)c1OC | 7 | 6 |
| COc1ccccc1NC(=O)N(Cc1ccccc1Cl)CC1CC(c2ccc(Cl)c(Cl)c2)=NO1 (stereo not given) | -3 | 6 |

Next results
SMILES	NPYLR7 ag	NPYLR7 ag max-min
CC(C)CNC(=O)CC(c1ccccc1C(F)(F)F)c1cn(C)c2ccccc12 (stereo not given)	-1	11
Cc1cnn(C(=O)c2ccc(Cl)s2)c1	0	-3
CC(C)(C)c1cn(C2CCN(C(=O)c3ccc4ncsc4c3)CC2)nn1	5	4
CCc1ccc(C(=O)NCCC(=O)OC)o1	11	6
Cc1ccn2c(=O)c(C(=O)NCCCN3CC(C)CC(C)C3)c(O)nc2c1 (stereo not given)	-1	27
CS(=O)(=O)c1cccc(NC(=O)C=Cc2ccc3c(c2)OCCCO3)c1	5	0
